# Bioassay records deposited in PubChem by National Center for Advancing Translational Sciences (NCATS).
# D2 ag – agonists of human D2 dopamine receptor (beta-arrestin). P14416. DiscoveRx PathHunter D2 beta-arrestin, luminescence, 90 min; 100% = 57 uM dopamine signal. activation, % (concentration not given with the values). hit rate 0.084% among 360,000. AID 624465; in the data active = activation above about 40%; inconclusive = about 15% to 40%; inactive = below about 15%; note: compound concentration not given in the record; the text of the record calls up to 30% inactive
#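 DiscoveRx PathHunter D2 beta-arrestin cells (2,100/well) attached overnight, then compound-stimulated 90 min at 37 C in HBSS/10 mM HEPES/0.1% Tween-20 buffer; beta-galactosidase complementation read by luminescence after 1 h at ambient temperature. Dopamine 57 uM final (EC100) as control.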
# D2 potentiator – positive allosteric modulators of human D2 dopamine receptor; P14416; DiscoveRx D2 beta-arrestin cells, luminescence, 90 min; 100% = 57 uM dopamine signal; potentiation, % (concentration not given with the values); hit rate 0.23% among 360,000; AID 624464; active = potentiation of 50% or more; inconclusive = 30% to 50%; inactive = 30% or less;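 note: compound concentration not given in the record; tested on top of an EC20 dose of dopamine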
#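 PathHunter D2 cells, attached overnight at 37 deg C, received compound in DMSO plus dopamine at EC20 (50 nM final) for 90 min at 37 deg C. Beta-arrestin recruitment was read as luminescence after 1 h with detection reagent at ambient temperature.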
# Sfp PPTase inh – Sfp phosphopantetheinyl transferase inhibition. Q9F4F7. Biochemical Sfp PPTase activity, qHTS. Potency, µM, inactives show max response, negative = inhibition, actives largely listed as inhibitors. hit rate 3.5% among 310,000; active = well fitted inhibition curve with a large enough effect; inconclusive = small, poorly fitted or top-dose-only effect, or another doubt; inactive = no such curve, though single readings can be large or run the other way;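 note: the enzyme is Sfp with the accession as filed and its product quenches rhodamine fluorescence; potency is the fitted concentration of half-maximal effect; 0% = enzyme reaction without inhibitor and -100% = no enzyme wells; top concentration of the series not given in the record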
#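 Compounds were incubated with enzyme (final 15 nM) for 15 min at room temperature before substrate addition started the reaction. Fluorescence at 525 nm excitation, 598 nm emission was recorded immediately and after 30 minutes.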
# TRPV1 PAM – enhances activation of the human vanilloid receptor TRPV1; Q8NER1; TRPV1-expressing cells, Fluo-8 calcium influx, capsaicin EC20 potentiation; host cell line not named in the record; control for the full effect not named in the record; potentiation, % at 8.33 µM; hit rate 0.02% among 320,000; AID 540277; active means potentiation above 80%; inconclusive means 30% to 80%; inactive means below 30%; note: 0% is about no effect
# Target sequence (Q8NER1 whole entry, looked up): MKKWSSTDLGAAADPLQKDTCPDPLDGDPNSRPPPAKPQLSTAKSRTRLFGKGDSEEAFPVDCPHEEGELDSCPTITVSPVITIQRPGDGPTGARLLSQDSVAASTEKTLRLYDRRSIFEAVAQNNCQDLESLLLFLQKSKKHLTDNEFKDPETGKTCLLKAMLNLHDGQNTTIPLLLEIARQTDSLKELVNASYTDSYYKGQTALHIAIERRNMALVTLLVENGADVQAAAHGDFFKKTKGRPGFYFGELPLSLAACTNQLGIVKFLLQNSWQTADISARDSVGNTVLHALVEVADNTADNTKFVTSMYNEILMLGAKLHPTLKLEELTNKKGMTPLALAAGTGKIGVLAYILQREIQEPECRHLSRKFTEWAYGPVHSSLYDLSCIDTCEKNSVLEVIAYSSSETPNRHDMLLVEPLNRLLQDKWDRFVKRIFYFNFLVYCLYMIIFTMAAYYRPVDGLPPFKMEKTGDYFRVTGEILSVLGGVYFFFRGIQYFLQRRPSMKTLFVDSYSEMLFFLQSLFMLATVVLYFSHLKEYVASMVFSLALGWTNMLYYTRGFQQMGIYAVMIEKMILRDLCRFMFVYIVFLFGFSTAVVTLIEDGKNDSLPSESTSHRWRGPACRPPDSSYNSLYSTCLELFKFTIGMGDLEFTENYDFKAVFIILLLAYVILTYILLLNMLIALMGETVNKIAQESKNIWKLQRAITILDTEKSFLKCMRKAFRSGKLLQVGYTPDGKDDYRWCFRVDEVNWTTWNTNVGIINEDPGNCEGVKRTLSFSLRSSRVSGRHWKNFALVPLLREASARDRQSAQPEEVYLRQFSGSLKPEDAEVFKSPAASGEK
#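 Cells expressing TRPV1 were dye-loaded with Fluo-8 and read kinetically: 10 s baseline, 3 min after compound (agonist portion), then 2 min after EC20 capsaicin (allosteric enhancer portion). Calcium-bound dye fluorescence at 480/520 nm.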
# PINK1 expr mod – changes PINK1 expression; Potency, µM (top dose mostly 76.6 µM), inactives show top-dose activation (PINK1 increase), usual class: activators; PINK1 immunofluorescence, high-content cytometry, 24 h; hit rate 0.2% among 410,000; active = well fitted activation curve with a large enough effect; inconclusive = small, poorly fitted or top-dose-only effect; inactive = flat fitted curve, though single readings scatter; cell line not stated here;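 note: potency is the fitted concentration of half-maximal effect; % of control where 0% means no effect; nearly all actives have a fitted effect of over 65% in size; a mitochondrial uncoupler was the plate control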
#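 Readout is PINK1 immunofluorescence, quantified alongside mitochondrial, cell and nuclear markers by laser-scanning microplate cytometry. Cells from a stable line were exposed to compound titrations (5 concentrations) for 24 hours, with CCCP controls.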
# Six1-Eya2 blk – inhibitors of human Six1/Eya2 interaction; Q15475+O00167; AlphaScreen GST-Six1/His-Eya2 binding, biochemical; stronger effect = lower value; control for the full effect not named in the record; activity change, % (test concentration not listed); hit rate 0.56% among 360,000; AID 651725; in the data active = activity change below about -65%; inconclusive = about -30% to -65%; inactive = above about -30%; note: % is set by controls: 0 for no effect and ±100 for the full control effect; compound concentration not given in the record
#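 Compounds are tested against tagged Six1 and Eya2 proteins bridged by glutathione donor and nickel acceptor beads; after a one-hour incubation at 37 °C without light, AlphaScreen emission is recorded.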
# CtBP-E1A inh – CtBP/E1A binding inhibition; AlphaScreen GST-E1A/His-CtBP binding, 1536-well; stronger effect = lower value; control for the full effect not named in the record; activity change, % (no concentration beside the values); hit rate 0.49% among 340,000; AID 651724; in the data active means activity change below about -65%; inconclusive means about -30% to -65%; inactive means above about -30%; note: % is set by controls: 0 for no effect and ±100 for the full control effect; compound concentration not given in the record
#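 GST-E1A and His-tagged CtBP (125 nM each as 5X stock) were preincubated with pin-transferred compound for 2 h at 37 °C in the dark, then glutathione donor and nickel acceptor beads were added for 1 h before AlphaScreen reading.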
# Starred values were filed as active, the others as inactive; ? = inconclusive; nt = no result given; & = joins results of further samples; [ ] = remark or other dose.
SMILES,D2 ag,D2 potentiator,Sfp PPTase inh,TRPV1 PAM,PINK1 expr mod,Six1-Eya2 blk,CtBP-E1A inh
CC(=O)Nc1ccc(C(=O)Nc2ccc(S(=O)(=O)N3CCOCC3)cc2)cc1,4.2,1,2%,21,0.3%,3,1
CCN(CC)C(=O)CSc1nc2ccccc2c(=O)n1OC(C)C,2.5,5,22%,-9,-4.4%,6,-9
Cc1c(C(=O)Nc2ccc3c(c2)OCCO3)sc2nc(-c3ccccc3)cn12,3.2,-7,4%,-20,-1.8%[38.3 µM],-22,-27
C[C@H](NC(=O)c1cc2c([nH]c3ccccc32)c(-c2ccccc2)n1)C(=O)O,0.4,-3,-6%,20,1.8%,?,nt
CCOC(=O)c1c(CN2CCN(CCO)CC2)n(C)c2cc(Br)c(OC)cc12,1.8,-16,12%,4,-5.9%[38.3 µM],-19,-23
CCOc1ccc(NC(=S)NC2CC3CCC(C2)N3Cc2ccco2)cc1 (stereo unspecified),-3.5,-6,-6%,1,0.9%,4,25
Cc1ccnc(OC(C(=O)O)C(OCc2ccccc2)(c2ccccc2)c2ccc(C(F)(F)F)cc2)n1 (stereo unspecified),2.3,25,8%,17,0.5%,-1,nt
C/C(=N/NC(=O)CNC(=O)COc1ccccc1)c1ccc(Cl)cc1,-2.4,-16,19%,0,2.6%,0,0
CCc1c(C)nc(N)c(C#N)c1-c1ccccc1,-0.1,3,29%,5,0.7%,133,8
CCOC(=O)N1CCC(n2c(=S)[nH]c3cc(OCC)c(OCC)cc3c2=O)CC1,-2.4,-10,6%,12,?,1,6
Clc1ccccc1-c1csc(Nc2cccnc2)n1,-3.0,-4,32µM*,-1,-0.8%,-12,0
CCCC(C(=O)NC1CCCC1)N(Cc1ccccc1)C(=O)c1snc(C(N)=O)c1N (stereo unspecified),8.0,3,15%,-7,0.7%,8,9
O=C1c2ccccc2NC(c2ccco2)N1NS(=O)(=O)c1ccccc1 (stereo unspecified),0.4,0,21%,-5,0.4%,6,1
N#CC(c1ccccn1)c1ncc(C(F)(F)F)cc1Cl (stereo unspecified),2.0,3,1%,-20,?,1,0
O=C(COc1ccc(Cl)cc1Cl)Nc1cccc(-c2ccc(N3CCOCC3)nn2)c1,-3.3,1,nt,-8,?,-9,4
COc1cc(/C=C/C(=O)OCC(=O)NCc2ccc(F)cc2)ccc1O,4.8,-5,nt,nt,4.2%,2,-1
Cc1ccccc1OCC(=O)N/N=C/c1cn(C)c2ccccc12,-3.6,-9,7%,-1,9.1%,-13,0
COC(=O)c1ccc(/C=N/OCC(=O)NCc2ccc(F)cc2)cc1,-0.4,-22,19%,-6,5.1%,6,4
O=C(NCCCn1ccnc1)c1cc([N+](=O)[O-])cc([N+](=O)[O-])c1,-1.4,?,-6%,4,-2.4%,8,1
CC1(C)CC(C(CC(=O)O)c2ccccc2)CCO1 (stereo unspecified),1.3,-11,21%,2,?,2,6
O=C1CC2c3ccccc3CCN2C(=O)CN1Cc1ccccc1 (stereo unspecified),-1.9,-3,nt,nt,0.4%,-1,1
CC(=O)c1cccc(NCC(=O)Nc2cccc(S(=O)(=O)N3CCCCC3)c2)c1,5.0,22,nt,-8,3.7%,-7,-3
COC(=O)C1=C(N)N(c2ccccc2C(F)(F)F)C2=C(C(=O)CCC2)C1c1ccc2c(c1)OCO2 (stereo unspecified),-1.3,-10,3%,-4,-0.5%,-13,-8
Cc1c(NC(=O)c2ccco2)cccc1C(=O)NN1C(=O)c2ccccc2C1=O,-1.6,-5,13%,-3,-0.5%,-3,nt

# Part of the list above, as labelled records:
SMILES: CC1(C)CC(C(CC(=O)O)c2ccccc2)CCO1 (stereo unspecified)
  D2 ag: 1.3
  D2 potentiator: -11
  Sfp PPTase inh: 21%
  TRPV1 PAM: 2
  PINK1 expr mod: ?
  Six1-Eya2 blk: 2
  CtBP-E1A inh: 6
SMILES: Cc1c(NC(=O)c2ccco2)cccc1C(=O)NN1C(=O)c2ccccc2C1=O
  D2 ag: -1.6
  D2 potentiator: -5
  Sfp PPTase inh: 13%
  TRPV1 PAM: -3
  PINK1 expr mod: -0.5%
  Six1-Eya2 blk: -3
  CtBP-E1A inh: nt

# New compounds follow:
SMILES,D2 ag,D2 potentiator,Sfp PPTase inh,TRPV1 PAM,PINK1 expr mod,Six1-Eya2 blk,CtBP-E1A inh
Cn1c(=O)c(C(=O)CSc2nncs2)c(N)n(Cc2ccccc2)c1=O,-3.7,-10,9%,14,nt,-14,-8
CC(=O)Nc1ccc(/C=C/c2noc(-c3ccccc3O)n2)cc1,-2.6,-14,-2%,6,1.1%&3.2%,-1,nt
CC(C)CCn1c(Sc2nc3ccccc3s2)nc2c1c(=O)[nH]c(=O)n2C,-5.9,12,11%,1,1.3%,2,18
Cc1cccc(C)c1NC(=O)CNC(=O)c1cccnc1,-3.2,-2,10%,1,1.5%,8,3
Cc1nc(-c2cccc(S(=O)(=O)N3CCCCC3)c2)cs1,0.1,2,7%,-9,-1.5%,6,-9
CCOc1ccc(S(=O)(=O)c2c(C(=O)c3ccc(C)cc3)cnc3cc4c(cc23)OCCO4)cc1,-2.2,-17,-3%,-4,2.0%,-2,-1
CCOc1ccc(-c2cc(N)n(S(=O)(=O)c3ccc(OC)c(OC)c3)n2)cc1,-5.4,-8,19%,2,6.0%,-16,-2
CN1CCN(C(=S)c2cn(Cc3ccccc3)c3ccccc23)CC1,-2.7,-3,7%,-5,0.1%,-23,-3
O=C(N1CCOCC1)N1CCN(c2nc(-c3ccc(F)cc3)cs2)CC1,1.8,2,-9%,-14,11%[38.3 µM],-11,0
CC1CCC(NC(=O)Cn2c(=O)[nH]c3ccsc3c2=O)CC1 (stereo unspecified),-2.5,-13,13%,1,-1.9%,4,-7
CC(=O)c1nn(-c2ccc(C)cc2)cc1C(=O)c1cccc(Br)c1,-2.7,-3,nt,nt,5.3%,-9,?
C[C@H]1CN(C2CCCCC2)C(=O)[C@@H]1CC(=O)Nc1ccccc1,-1.4,nt,nt,nt,0.9%,4,-3
Cc1ccccc1OCC(=O)OC1CCN(C)CC1,-4.4,-14,-19%,3,0.2%,4,2
C[C@]12c3[nH]c4ccccc4c3CCN1C(=O)C(CC(=O)NCc1ccco1)C[C@@H]2C(=O)N1CCCCC1 (stereo partly specified),-2.2,-1,nt,nt,11%,4,-2
O=C(CSc1nnc(-c2ccccn2)n1-c1ccc(Cl)cc1)Nc1ccc2c(c1)OCO2,-2.7,-11,1%,6,26%[38.3 µM],-12,-7
CCOc1ccc(Cl)cc1CSc1ncn[nH]1,-1.0,4,-12%,-5,7.0%,5,-20
COC(=O)c1ccc(C2C(C#N)=C(N)Oc3cc(C)n(C)c(=O)c32)cc1 (stereo unspecified),-7.5,4,15%,2,-1.6%,8,-4
N#Cc1cccc(C(=O)OCC(=O)NC(=O)NC2CCCCC2)c1,2.9,3,nt,1,-0.8%,1,-1
COc1ccnc(CSC(N)=Nc2cccc(C(F)(F)F)c2)c1,-9.6,-20,?,1,1.2%,-67*,-7
COc1ccccc1N1C(=O)CCC1(C#N)c1ccccc1 (stereo unspecified),-1.7,-9,10%,-19,-2.6%,1,3
C#CCN1C(=O)C(O)(c2c(C)[nH]c3ccccc23)c2ccccc21 (stereo unspecified),-6.1,-13,5%,8,0.8%,17,0
Cc1cc(NC(=O)CCC(=O)N(c2ccccc2)C(C)C(=O)NC2CCCC2)no1 (stereo unspecified),3.7,4,8%,-5,0.6%,2,-6
Cn1c(=N)n(CC(=O)O)c2ccccc21,-3.4,-7,10%,10,0.3%,31,0
COc1ccc(/C=C/C(=O)Nc2nnc(C(C)C)s2)cc1OC,-3.8,-12,28%,-11,1.4%,-3,nt
CC1CCCN(CC(O)CN)C1 (stereo unspecified),0.9,1,11%,6,-1.2%,-1,2
CCOC(=O)C1CCCN(C(=O)c2ccc(S(=O)(=O)N3CCCC3)cc2)C1 (stereo unspecified),-6.8,-2,nt,1,2.9%,8,8
CC1(C)Cc2c(sc(NC(=O)c3ccco3)c2C(=O)O)CO1,-0.2,-8,6%,-4,-3.8%[38.3 µM],0,-6
CN(C)CCCNc1oc(-c2ccc(Cl)cc2)nc1C#N,2.4,-21,11%,9,0.0%,-2,-4
O=C1CC(c2ccccc2)Oc2cc(O)cc(O)c21 (stereo unspecified),2.9,-16,20%,?,0.8%,1,7
Cc1ccc(C2CC(=O)c3cnn(-c4nc(C)cc(C)n4)c3C2)cc1 (stereo unspecified),1.3,-6,-10%,-14,-0.3%,3,-10
COc1ccc(NC(=O)c2ccccc2NC(=O)c2ccco2)c(OC)c1,-1.1,-4,-9%,-14,0.0%[38.3 µM],-17,0
O=C(O)C1CC=CCC1C(=O)NC12CC3CC(CC(C3)C1)C2 (stereo unspecified),0.2,2,15%,-2,0.3%,2,3
O=C(Cn1nc(C(=O)O)c2ccccc2c1=O)Nc1cc(S(=O)(=O)N2CCOCC2)ccc1Cl,2.1,-6,nt,nt,3.5%,-22,-2
CCOc1ccc(C(=O)NC(=S)Nc2ccc(NC(=O)c3ccco3)cc2)cc1[N+](=O)[O-],2.1,-7,?,-34,6.4%,0,0
O=C(NCc1ccco1)/C(=C/c1ccc(Cl)cc1)NC(=O)c1ccco1,-5.8,-1,13%,-12,5.2%,12,0
Cc1ccc(-n2ncc3c(NCc4ccco4)ncnc32)cc1C,-6.0,-4,-10%,?,0.8%,5,3
O=C(Cc1ccccc1Cl)N/N=C/c1cccnc1,0.1,-10,11%,3,0.4%,6,0
Cc1ccc(S(=O)(=O)CCNC(=O)Cc2ccc(Cl)cc2)cc1,0.0,5,3%,-9,0.1%,2,8
CN1C(=O)c2cccc(N(C)C)c2C1=O,-2.2,-1,-7%,-9,6.6%[38.3 µM],2,-13
COc1cccc(-c2ccc(NC(=O)C3CCCN(CCCn4nc(C)cc4C)C3)cc2)c1 (stereo unspecified),4.4,-31,-11%,-2,4.1%,-8,-15
O=C(O)CSc1ncnc2scc(-c3ccc(Br)cc3)c12,-0.5,0,2%,3,0.0%,-3,-3
COc1cc(S(=O)(=O)Nc2c(C)cc(C)cc2C)ccc1Cl,-2.8,12,56µM*,-5,8.6%[38.3 µM],4,13
Cc1ccc2cccc(OCc3ccccc3)c2n1,-3.3,-7,18%,16,2.5%,1,3
CCCn1c(C)cc(/C=C(\C#N)C(=O)O)c1C,-3.9,-3,22%,-4,1.1%,3,-8
CC(=O)Oc1cc2cccc(OC(C)=O)c(=O)c2c(OC(C)=O)c1OC(C)=O,7.7,1,-20%,9,1.1%,?,-28
